# High-throughput results from PubChem BioAssay.
# MT1-MMP act inh: MT1-MMP (human) activation inhibition | hit rate 0.061% among 360,000 | P50281 | GFP/RFP ratio change, % at 20 µM | HT1080 RFP-PRO-GFP cells, GFP/RFP ratio fluorescence, overnight; percent of plate control window, DMSO zero;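 active = GFP/RFP ratio change of at least 30% with cell ATP level not reduced by more than half and red fluorescence within 50% of control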; note: strong numbers were not always called active
#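 Assay system: HT1080 RFP-PRO-GFP cells | Dosing: 20 µM single dose, 1% DMSO | Incubation: Cells overnight before dosing, compound overnight, 37 °C, 5% CO2 | Evaluation: GFP/RFP fluorescence ratio | Control set: DMSO-only wells and HT1080 RFP-L50D-GFP cell wells as references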
# eIF4H FP inh: inhibitors of RNA binding by human eIF4H. hit rate 0.94% among 290,000. eIF4H fluorescence polarization binding assay. inhibition, % at 35 µM. AID 2012. Q15056;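 active = 50% or more with normal probe brightness, or confirmed in later tests; inconclusive = above 50% with abnormal brightness, or retests that disagree; inactive = below 50% or failed in later tests; about a fifth of its hits are not listed in these tables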;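 note: calls also rest on retests at 20 µM and on dose response follow-up; 0% = protein and probe with vehicle and 100% = probe without protein; strong numbers were not always called active; many hits fall short of the cut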
# UUG fidelity: alters start codon recognition fidelity in yeast; activity score, % at 18.7 µM; hit rate 0.13% among 350,000; S. cerevisiae UUG-firefly luciferase reporter, luminescence/redox ratio;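 active = replicate mean at a twofold rise or more, about +100% in these data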;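 note: firefly luciferase made from a UUG start codon reports start codon fidelity; reporter light over untreated wells divided by growth signal over untreated wells; some hits fall short of that in this replicate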
# CSC inhib: cancer stem cell inhibition. hit rate 1.1% among 300,000. inhibition, % at 7.5 µM. cancer stem cell-like cells viability, luminescence. AID 2717;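 active = mean at 75% or more and at least half the replicates too; inconclusive = mean and replicates disagree; tested in HMLE shEcad cells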;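 note: 0% = median of negative and 100% = median of positive control wells; the first replicate is given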
# Rce1 inh: inhibitors of yeast Ras-converting enzyme. yeast membranes, quenched prenylated peptide cleavage fluorescence. calls only. hit rate 0.27% among 290,000. AID 2563;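 active = fall in fluorescence gain of 50% or more versus controls, with final raw signal at or below 3038400; inconclusive = same 50% fall but final raw signal above 3038400; inactive = fall in fluorescence gain under 50%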;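 note: plate controls were neutral control wells for no effect and wells lacking membranes for full effect; tested at 10 µM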
# Target sequence (Q03530 whole entry, looked up): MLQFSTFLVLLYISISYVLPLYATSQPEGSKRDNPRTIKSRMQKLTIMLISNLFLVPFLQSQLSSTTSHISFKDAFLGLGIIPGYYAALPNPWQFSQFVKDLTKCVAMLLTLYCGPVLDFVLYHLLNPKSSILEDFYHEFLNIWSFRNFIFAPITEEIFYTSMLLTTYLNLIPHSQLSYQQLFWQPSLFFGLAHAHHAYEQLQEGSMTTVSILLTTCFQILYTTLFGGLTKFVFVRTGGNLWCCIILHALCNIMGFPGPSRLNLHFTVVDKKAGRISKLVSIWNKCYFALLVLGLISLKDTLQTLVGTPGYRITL
# HIV Env fusion: inhibitors of HIV Env-mediated cell fusion | HeLa-JRFL Env/CEM21 cell fusion, luciferase | inhibition, % at 12.3 µM | hit rate 1.1% among 360,000 | AID 651610;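 active = mean replicate inhibition score of at least 50 and every replicate individually at or above 50; inconclusive = only one of the two criteria met; inactive = mean below 50 and not all replicates reaching 50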;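 note: 0% = plate neutral controls and 100% = maraviroc near 300 nM; one replicate is shown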
# PABP polyA inh: blocks human PABP binding to poly(A) RNA. fluorescence polarization. inhibition, % at 35 µM. hit rate 1% among 290,000;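 active = 50% or more with normal probe brightness, or confirmed in later tests; inconclusive = above 50% with abnormal brightness, or retests that disagree; inactive = below 50% or failed in later tests; about a fifth of its hits are not listed in these tables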;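 note: calls also rest on retests at 20 µM and on dose response follow-up; controls were probe without protein and protein plus probe with vehicle; some compounds called inactive have numbers as strong as hits; many hits fall short of the cut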
# eIF4H FP inh retest: recorded beside eIF4H FP inh, whose call it bears; inhibition, %; compound at 20 µM; confirmation average;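 mean of two retest wells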
# PABP polyA inh retest: also measured in PABP polyA inh; calls as there; inhibition, %; compound at 20 µM; confirmation repeats;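 mean of two retest wells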
# MT1-MMP act inh RFP: recorded beside MT1-MMP act inh, whose call it bears; RFP signal change, %; measured here: RFP expression control read;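 0 = vehicle wells; hits needed this value within 50% of zero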
# * marks the source's active call; other numbers are inactive results; i = inactive; u = inconclusive; x = no result given; & = joins results of further samples; [ ] = another dose, or the depositor's remark. Rows are unselected; 2.9% or so of the library scored in one or more.
SMILES,MT1-MMP act inh,MT1-MMP act inh RFP,eIF4H FP inh,UUG fidelity,CSC inhib,Rce1 inh,HIV Env fusion,PABP polyA inh,others
O=C(CN(C(=O)c1csnn1)c1cccc2ccccc12)NC1CCCC1,0,-1,-6,x,-10,i,7,4,
O/C(=C\Sc1nnc(Cc2ccccc2)o1)c1ccc(F)cc1,-9,-4,4,-7,5,i,x,1,
CSc1ncc(C(=O)Nc2ccccc2)cn1,1,-1,2,3,-5,i,14,12,
COc1ccccc1NC(=O)CSc1nnc(CC(=O)Nc2ccccc2)n1C,-1,-1,3,-14,x,i,-52,3,
NS(=O)(=O)c1ccc(CCNC(=O)C2CCCO2)cc1 (stereo not given),2,-2,-13,-24,-5,i,-8,4,
O=C(Cn1c(N2CCN(c3ccccc3)CC2)nc2ccccc21)c1ccccc1,-14,-20,-2,-11,-9,i,x,-6,
CCOC(=O)Cn1c(-c2nonc2NC(=O)c2ccccc2F)nc2ccccc21,-8,3,17,-19,41,i,11,42,
COc1ccc(CCNC(=O)c2ccc(N(C)S(=O)(=O)c3ccccc3)cc2)cc1,4,-5,-2,-5,-1,i,11,-9,
CCOC(=O)C(NC(=O)c1ccccc1OCC)(Nc1ncccn1)C(F)(F)F (stereo not given),-6,-5,11,-3,18,i,x,-5,
CCOP(=O)(OCC)c1nc(Cc2ccccc2)oc1NCc1ccccc1,-1,2,-1,x,-14,i,-1,-10,
Cc1ccccc1OCC(=O)OCC(=O)NCC1CCCCC1,1,4,x,-8,-22,x,x,x,
CCCOc1cccc(C(=O)NC(=S)Nc2cccc(C(F)(F)F)c2)c1,7,1,2,-13,22,i,x,2,
COc1ccc(NS(=O)(=O)c2cccc(C(=O)N/N=C/c3ccccc3OC)c2)cc1,-3,-1,x,-12,x,x,-7,x,
CCS(=O)(=O)n1nc(-c2ccc(OC)cc2)nc1SC,-1,6,0,-4,3,i,x,4,
C[C@@H]1CN([C@H](C)CO)C(=O)c2cc(NC(=O)Cc3ccccc3)ccc2O[C@H]1CN(C)Cc1ccc(Oc2ccccc2)cc1,2,-3,x,-10&-1,66,x,7,x,
Cc1cc(C)c(C#N)c(SCc2nc3ccccc3[nH]2)n1,-1,-11,-1,-11,-14,i,x,-9,
CCOc1ccc(CCNC(=O)CCNS(=O)(=O)c2ccc3c(c2)CCN3C(C)=O)cc1OCC,3,-8,-13,-8,-8,i,-3,4,
COc1cc(OC)cc(C(=O)OCC(=O)Nc2ccc(F)cc2F)c1,3,-1,3,-10,-11,i,8,10,
COc1ccc(CNS(=O)(=O)c2ccc(Br)s2)cc1,-2,1,-5,-15,-1,i,-3,-3,
CCCCN(CC(=O)NCc1ccc(F)cc1)C(=O)c1ccco1,-1,0,-3,-17,4,i,-9,-2,
CCn1c(SCC(=O)N2CCCc3ccccc32)nnc1-c1c[nH]c2ccccc12,-4,-7,8,-24,2,i,x,-3,
C=C(Cl)COc1ccc2c(CCCC)cc(=O)oc2c1,-1,2,-2,x,11,i,x,7,
Cc1cc2cc(C)c3nnc(SCC(=O)NCc4ccc5c(c4)OCO5)n3c2cc1C,13,-1,15,-15,-3,i,-25,10,
O=C(NC(CO)Cc1ccccc1)c1ccccc1 (stereo not given),-1,2,6,x,-11,i,x,-6,
COc1ccc(OC)c(NC(=O)CCc2nnc3ccc(N4CCC(C)CC4)nn23)c1,-4,-3,-6,-20,-12,i,-5,1,
O=C(O)CC1CCCC(c2ccccc2)C1=O (stereo not given),-2,1,-12,0,-4,i,-122,55,eIF4H FP inh retest=-1;PABP polyA inh retest=3
COc1ccc(CC(=O)NCc2nnc(SCC(=O)Nc3ccc(OC)cc3)n2C)cc1,3,7,-11,x,-1,i,0,-10,
O=C(Nc1ccncc1)c1cccc(S(=O)(=O)N2CCN(c3ccc(F)cc3)CC2)c1,-3,-26,x,-11,7,i,14,x,
CCCN1CCC(C)(C(=O)Nc2ccccc2Oc2ccccc2)C1 (stereo not given),4,8,x,-1,x,x,-13,x,
CCOC(=O)c1sc(NC(=O)COC(=O)CNC(=O)c2ccco2)c(C(=O)OCC)c1C,-1,-2,2,x,-20,i,-11,8,
O=C(CNc1cccc([N+](=O)[O-])c1)NC(=O)NC1CCCCC1,9,-1,x,6,x,x,-7,x,
Cc1cccc(NC(=O)c2cnn(-c3ccc(F)cc3)c2C2CCNCC2)c1C,2,6,6,-10,-13,i,3,1,
O=C(CN1C(=O)CC(c2ccccc2)=Nc2ccccc21)NCc1ccccc1,3,3,-1,-7,-20,i,x,6,
CC(=O)c1cccc(NC(=S)N2CCN(S(=O)(=O)c3ccccc3)CC2)c1,0,0,3,-2,-8,i,-13,2,
CSCCC(NC(N)=O)C(=O)NCc1ccc(Cl)cc1 (stereo not given),4,3,1,-25,-15,i,5,11,
CC(C)C(=O)Nc1ccc2c(c1)nc(CCN1CCN(c3ccccn3)CC1)n2C,4,-7,2,-18,2,i,2,-7,
COc1ccc(NC(=O)CC(=O)Nc2ccc(OC)cc2OC)c(OC)c1,2,-7,-6,-12,-5,i,-10,5,
O=C(NCc1cc2ccccc2[nH]1)C1CCC(=O)N(CCCN2CCCC2=O)C1 (stereo not given),-7,6,13,8,6,i,0,5,
Cc1cc(C(C)(C)C)ccc1OCCn1ccnc1,-8,-5,2,5,7,i,7,4,
Cc1ccc(NC(=O)c2ccc(CNc3c(N4CCOCC4)c(=O)c3=O)cc2)cc1,0,3,0,-5,-10,i,14,3,

# Of the compounds above, 3 contain two or more sulfur atoms.
SMILES,MT1-MMP act inh,MT1-MMP act inh RFP,eIF4H FP inh,UUG fidelity,CSC inhib,Rce1 inh,HIV Env fusion,PABP polyA inh,others
CCS(=O)(=O)n1nc(-c2ccc(OC)cc2)nc1SC,-1,6,0,-4,3,i,x,4,
COc1ccc(CNS(=O)(=O)c2ccc(Br)s2)cc1,-2,1,-5,-15,-1,i,-3,-3,
CC(=O)c1cccc(NC(=S)N2CCN(S(=O)(=O)c3ccccc3)CC2)c1,0,0,3,-2,-8,i,-13,2,

# (list continues)
SMILES,MT1-MMP act inh,MT1-MMP act inh RFP,eIF4H FP inh,UUG fidelity,CSC inhib,Rce1 inh,HIV Env fusion,PABP polyA inh,others
Cn1nc(C(F)(F)F)c(-c2ccc(Br)cc2)c1NC(=O)C1CCC1C(=O)O (stereo not given),-1,-3,3,-4,4,i,-2,10,
O=C(Nc1ccnn1C1CCN(CC2CC=CCC2)CC1)c1ccccc1 (stereo not given),-2,2,26,-18,x,i,-5,25,
c1ccc(COc2cncc(-c3cccnc3)c2)cc1,1,0,x,-20,5,x,50,x,
Nc1ccccc1NC1=CC(=O)CC(c2ccccc2)C1 (stereo not given),x,x,4,x,-10,i,x,-7,
O=C(COC(=O)[C@@H]1CCCN1C(=O)c1cccs1)NCCc1ccccc1,-4,-2,90,-21,-6,i,-59,6,eIF4H FP inh retest=2;PABP polyA inh retest=5
Cc1cc(C)c2ccc3c(C)c(C)nc3c2[nH]1,-10,-8,19,x,21,i,3,3,
O=C(Nc1cccc(NC(=O)c2ccco2)c1)c1cnccn1,-6,-3,1,-11,10,i,11,3,
O=C(OCc1ccccc1)N1CCC2CC1c1cc(Cl)ccc12 (stereo not given),2,-3,x,-24,x,x,-7,x,
CCC(C)NCC(=O)Nc1sc2c(c1C(N)=O)CCC2 (stereo not given),3,-1,8,-18,-16,i,-9,4,
C=CCNC(=O)c1onc(CSc2cccc(OC)c2)c1C(=O)O,-1,3,-2,-9,0,i,-2,0,
Cc1ccc(OC(=O)c2c(C)nn(-c3ccccc3)c2C)cc1,0,-6,-2,-13,-3,i,-23,-15,
CC(C)CNC(=O)C(=O)Nc1ccc2c(c1)N(S(=O)(=O)c1cccs1)CCC2,2,-9,x,x,8,i,-17,x,
COc1ccc2occ(C(=O)c3cccs3)c2c1,2,1,-12,-7,-14,i,-277,0,
C#CC(CC)(CC)NC(=S)Nc1cccc(C(C)=O)c1,1,-5,-4,-14,5,i,x,-17,
C=CCON1C(=O)C(=O)N(OCC=C)[C@H]2CCCC[C@H]21,6,4,-7,-19,-1,i,5,8,
CCOc1ccccc1N(C(=O)CNC(=O)c1ccco1)C(C(=O)NC(C)(C)C)c1ccncc1 (stereo not given),1,6,-7,x,7,i,-12,-1,
OCCN1CCN(C(=S)c2ccc(-c3ccccc3)cc2)CC1,3,2,-7,-13,4,i,71*,-5,
Cc1ccc(C)c(C(=O)CCC(=O)NNC(=O)Cn2nc(C)cc2C)c1,4,3,x,10,-11,i,x,x,
O=C(c1ccco1)N1CCC(n2nnc3ccccc32)CC1,14,10,7,4,11,i,1,3,
O=C(CSc1ccccc1Cl)c1ccco1,5,5,-8,-22,4,i,x,6,
Cc1c(C)n(CC(O)CN2CCOCC2)c2ccccc12 (stereo not given),5,3,-7,x,-8,i,x,11,
CCCCn1c(N)c(N(CCOC)C(=O)CCCc2nc3ccccc3c(=O)[nH]2)c(=O)[nH]c1=O,-3,2,x,-13,9,i,-5,x,
O=C(CCc1ccccc1Cl)NC1CCCN(c2ccc(C(F)(F)F)cn2)C1 (stereo not given),1,-1,-4,-15,-20,i,12,2,
CC(OC(=O)C1CCCCC1)C(=O)Nc1cccc(Cl)c1 (stereo not given),3,-6,0,-3,-7,i,8,14,
CN(C)S(=O)(=O)c1cccc(NC(=O)CCc2nc3sc4c(c3c(=O)[nH]2)CCCC4)c1,-3,-18,x,-7,-8,x,23,x,
CCN(CC)CCCNc1oc(-c2cccc(Cl)c2)nc1C#N,-9,0,-4,x,30,u,-22,-5,
O=C(Nc1nc(-c2cc(F)ccc2F)cs1)C1=NN(c2ccccc2)C(=O)CC1,-2,-6,3,x,22,i,14,2,
CC1=C(C(=O)OCC(C)C)C(c2cc3c(cc2Br)OCO3)NC(=O)N1C (stereo not given),-14,-12,-1,-18,-23,i,x,-14,
Cc1nn(Cc2ccccc2)c2c1C(c1ccc(Cl)cc1)C(C#N)=C(N)O2 (stereo not given),2,-2,-10,-13,0,i,x,-4,
CCOC(=O)N1CCN(C(=O)Nc2cccc3ccccc23)CC1,5,3,-1,x,-1,i,8,7,
COC(=O)c1cc(S(=O)(=O)N2CCCCC2)ccc1N1CCOCC1,-1,-1,x,-1,-2,i,6,x,
C[C@H]1CN([C@@H](C)CO)S(=O)(=O)c2ccc(Br)cc2O[C@H]1CN(C)Cc1ccc(F)cc1,-5,-1,x,-1&13,x,x,71*[16.7 µM],x,
N#CC(c1ccccc1)c1ccc2c(C(F)(F)F)cc(C(F)(F)F)nc2n1 (stereo not given),1,-30,-2,x,-6,i,x,-6,
CC(C)c1ccc(-c2c(C#N)c(N)nc(SCC(=O)N3CCCCC3)c2C#N)cc1,-6,-1,5,-21,x,i,-22,0,
CN(C)c1ccc(NC(=O)Nc2ccc3c(c2)c(=O)n(C)n3Cc2ccccc2)cc1,1,6,x,-16,x,x,-3,x,
Cc1ccc(NC(=O)c2ccc(=O)n(CC(=O)Nc3ccccc3)n2)cc1,1,-2,-3,-19,-6,i,-5,-3,
CCCn1c(C2CC(=O)N(c3cc(OC)ccc3OC)C2)nc2ccccc21 (stereo not given),5,6,-4,-9,-14,i,-21,-3,
COc1ccc(CCNC(=O)C2CC(=O)N(c3ccc(C(C)(C)C)cc3)C2)cc1OC (stereo not given),3,-2,0,x,7,i,17,-17,
O=C(NNC(=O)c1ccc(O)cc1O)c1ccc(-c2ccccc2)cc1,7,3,7,9,42,i,-2,8,
